RanGTP-Impb inh: inhibitors of RanGTP-importin-beta interaction, primary screen, biochemical, FRET, CFP-Ran, YFP-importin-beta, homogeneous; cell-free CFP-Ran/YFP-importin-beta FRET ratio; inhibition, % (no concentration beside the values); AID 2216; 300,000 tested, 1.1% active;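 active = most replicates above 15%; inconclusive = exactly half above 15%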;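 also: 0% = DMSO wells and 100% = Ran loaded with GDP instead of GTP; wells of about 40 µL received 100 nL stock; the first replicate is given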
E coli growth: inhibitors of Escherichia coli growth | OD600, 23 h; stronger effect = lower value | OD600 absorbance (test concentration not listed) | 330,000 tested, 0.21% active | AID 1053175;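 active = OD600 absorbance below the run mean of sample wells minus 3.6 SD, in any replicate, cut at about 0.56 in these data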;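 also: stock transfer was 300 nL into about 60 µL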
FGF22 binding: FGF22 (human) thermal shift binding. Q9HCT0. recombinant FGF22 thermal shift, SYPRO orange fluorescence; percent of sucrose octasulfate shift, DMSO zero. calls only at 9.99 µM. 340,000 tested, 1.5% active;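 active = melting point raised past a set limit in the mean and every replicate; inconclusive = no clear call; three in four hits are not shown here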
Target sequence (Q9HCT0 whole entry, looked up): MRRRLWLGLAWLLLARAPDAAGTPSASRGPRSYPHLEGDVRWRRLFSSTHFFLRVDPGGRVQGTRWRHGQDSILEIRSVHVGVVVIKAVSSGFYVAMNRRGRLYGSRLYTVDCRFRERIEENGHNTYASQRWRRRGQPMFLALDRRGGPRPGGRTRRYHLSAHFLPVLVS
UCH37 DUB inh: inhibitors of human deubiquitinating enzyme UCH37; Q9Y5K5; purified proteasome/UCH37, Ub-AMC cleavage fluorescence; inhibition, % (test concentration not listed); 330,000 tested, 0.33% active; AID 588478;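 active = mean of two replicates above 20%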;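 also: 0% = compound-free wells with enzyme and 100% = wells lacking proteasome; stock transfer was 100 nL into about 20 µL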
Target sequence (Q9Y5K5 whole entry, looked up): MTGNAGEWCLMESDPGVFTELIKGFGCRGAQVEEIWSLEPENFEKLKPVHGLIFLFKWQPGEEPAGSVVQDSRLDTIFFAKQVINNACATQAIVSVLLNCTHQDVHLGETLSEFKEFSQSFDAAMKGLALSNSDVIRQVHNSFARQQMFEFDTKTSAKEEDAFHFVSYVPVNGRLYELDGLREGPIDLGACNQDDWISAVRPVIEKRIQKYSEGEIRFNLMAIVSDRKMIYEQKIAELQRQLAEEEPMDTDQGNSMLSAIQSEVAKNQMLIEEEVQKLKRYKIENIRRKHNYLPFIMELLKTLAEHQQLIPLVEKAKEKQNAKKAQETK
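Assay system: Proteasome-bound UCH37. Buffer or medium: pH 7.4 Tris-HCl (50 mM) with ovalbumin, ATP-MgCl2, DTT. Incubation: 30 min preincubation with enzyme, 25 min cleavage at room temperature. Measured by: fluorescence, ex 355 nm, em 460 nm. Read-out basis: percent inhibition. Control set: wells without proteasome as full block, compound-free enzyme plus substrate as uninhibited.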
Vif A3G: HIV-1 Vif–A3G interaction blockers – biochemical, TR-FRET, GST-Vif 1-94, biotin-A3G peptide, dose response retest, primary screen (AID 1117319) | TR-FRET GST-Vif / biotin-A3G peptide binding; higher % means a stronger effect; test concentration not given here; strong numbers were not always called active | inhibition, %, or IC50 in µM where a hit was titrated | 260,000 tested, 0.57% active;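 active = above the screen mean plus three standard deviations and confirmed in dose response; inconclusive = results disagree or hit not tested in dose response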;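 also: Vif residues 1-94 fused to GST binding biotinylated APOBEC3G peptide 110-148; 0% = full assay without inhibitor and 100% = GST in place of GST-Vif; retest series ran down from 100 µM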
HNF4A DNA FP: change in binding of human HNF4 alpha to DNA; HNF4a-FITC DNA binding, fluorescence polarization, 1 h; activity change, % at 10 µM; 360,000 tested, 0.3% active; AID 1224865; in the data active = activity change above about 30%, passing the limit was not always enough;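 also: controls were the assay level and a saturating level of protein; the project sought stronger binding though the title names inhibitors; some compounds called inactive have numbers as strong as hits; positive values seem to mean higher polarization but the record does not say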
Target sequence (P41235 whole entry, looked up): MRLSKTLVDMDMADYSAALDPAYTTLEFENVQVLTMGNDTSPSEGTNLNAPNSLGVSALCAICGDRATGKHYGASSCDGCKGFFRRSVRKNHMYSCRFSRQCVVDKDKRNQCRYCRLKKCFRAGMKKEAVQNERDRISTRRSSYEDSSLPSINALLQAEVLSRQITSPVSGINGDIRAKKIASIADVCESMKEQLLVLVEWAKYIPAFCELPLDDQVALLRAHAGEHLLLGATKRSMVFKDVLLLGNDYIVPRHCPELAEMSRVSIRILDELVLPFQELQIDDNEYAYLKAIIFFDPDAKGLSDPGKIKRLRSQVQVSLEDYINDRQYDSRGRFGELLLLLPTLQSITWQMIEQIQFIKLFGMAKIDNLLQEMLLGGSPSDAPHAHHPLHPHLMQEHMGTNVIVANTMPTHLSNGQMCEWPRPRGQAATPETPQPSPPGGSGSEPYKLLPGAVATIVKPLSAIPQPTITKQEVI
AF4-AF9 inh: blocks AF4 peptide binding to human AF9 | AlphaScreen, biotin-AF4 peptide binding to FLAG-AF9 | inhibition, % at 10 µM | 350,000 tested, 0.47% active | AID 651704;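 active = every replicate reaching a set inhibition limit, whatever the replicate mean, cut at about 25% in these data; inconclusive = mean inhibition reaches that limit but some replicates miss it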;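 also: 0% = plate neutral control median and 100% = total signal loss; the record names both 10 and 1 µM as test concentration; the first replicate is given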
* hit, by the source's call; i = inactive; ? = inconclusive; · = no result given; & = joins results of further samples. Only part of the results is shown; count on the stated rates, not on these rows.

SMILES | RanGTP-Impb inh | E coli growth | FGF22 binding | UCH37 DUB inh | Vif A3G | HNF4A DNA FP | AF4-AF9 inh
COc1ccccc1NS(=O)(=O)c1cc(NC(=O)c2sccc2C)ccc1N1CCCC1 | 0.4 | 0.645 | · | 4.8 | -7.6% | -0.9 | ·
CCOc1ccccc1N(CC(=O)N1CCOCC1)S(=O)(=O)c1ccccc1 | ? | 0.738 | · | 1.2 | -0.1% | -0.1 | ·
O=C(CN1C(=O)C2CC=CCC2C1=O)NCC(=O)Nc1ccc(F)c(F)c1F (stereo not given) | -0.3 | 0.71 | · | 1.2 | -5.7% | 1.3 | -1.0
COc1ccccc1Cn1c(=S)[nH]c2ccc(Br)cc2c1=O | -2.1 | 0.72 | i | 3.8 | -0.3% | 0.7 | 0.4
O=C(OCC(=O)c1ccc[nH]1)c1ccc(Cl)nc1 | 1.5 | 0.686 | i | 3.8 | 10.0% | 3.0 | 4.8
COc1ccccc1NS(=O)(=O)c1ccc(O)cc1 | 1.4 | 0.69 | · | -0.5 | 28.2% | 0.0 | ·
NNC(=O)Cn1c(-c2nonc2N)nc2ccccc21 | 2.4 | · | i | · | -4.6% | -1.8 | -0.9
O=C(OCc1nnc(-c2ccccc2)o1)C1=COCCO1 | -1.2 | 0.695 | · | 3.7 | 1.5% | -2.1 | ·
C=CCOc1ccccc1CN1CCC(n2nccc2NC(=O)C2CCOC2)CC1 (stereo not given) | 0.6 | 0.708 | i | 0.3 | · | -2.7 | -0.1
CC(Sc1nnnn1-c1ccc(O)cc1)C(=O)NNC(=O)c1ccc(F)cc1 (stereo not given) | · | 0.658 | i | 0.7 | -12.3% | -2.0 | 0.7
CCOP(=O)(OCC)C(Nc1cccc([N+](=O)[O-])c1)c1ccccc1 (stereo not given) | 3.6 | 0.708 | i | 5.2 | 3.9% | 2.3 | -1.2
COc1ccc(NC(=O)c2ccc3ncsc3c2)c2ccccc12 | 0.4 | 0.703 | i | -3.2 | -6.4% | -2.8 | -2.0
COc1ccc(-c2nc3ccccc3c(=O)n2CCOc2cc(C)ccc2C)cc1 | 1.1 | 0.714 | i | 0.6 | -3.9% | -2.0 | -1.3
Cc1ccc2c(c1)N(CC(=O)Nc1ncccc1C)C(=O)C(C(C)C)O2 (stereo not given) | 4.4 | 0.641 | i | 4.3 | · | 3.6 | -15.8
CCn1c(SCC(=O)NCCOC)nc2sc3c(c2c1=O)CCCC3 | 5.1 | 0.695 | · | 5.6 | 8.1% | 3.4 | ·
Cc1ccc(NC(=O)C2CC(O)CN2C(=O)OCc2ccccc2)c(C)c1 (stereo not given) | 0.4 | 0.662 | i | 3.0 | · | -3.7 | -3.8
Cc1cc2ncn(CC(C)C)c2cc1C | 3.7 | 0.664 | i | 3.0 | · | 5.7 | -1.0
c1ccc(-c2cccs2)nc1 | -1.9 | 0.653 | i | 1.2 | -5.3% | 2.7 | 0.4
COc1cccc(/C=C/C(=O)OCC(=O)NC(=O)NC2CCCCC2)c1 | 4.7 | · | i | · | · | -4.3 | 8.1
CC(=O)c1ccc(OC2(C)CCN(Cc3ccc4c(c3)OCCO4)C2)cc1 (stereo not given) | · | · | i | · | · | -3.3 | 4.3
Cc1noc(C)c1S(=O)(=O)N1CCN(c2ccccc2Cl)CC1 | · | 0.671 | i | 3.5 | 3.0% | 0.0 | 1.0
COc1cccc(CN(C)CC(=O)Nc2cccc(S(=O)(=O)N(C)c3ccccc3)c2)c1OC | · | 0.649 | i | 3.6 | · | 1.4 | -1.3
CCOc1ccc(-c2csc3nc[nH]c(=O)c23)cc1 | 0.7 | 0.678 | i | 1.0 | · | 3.8 | -1.8
COC(=O)[C@H](Cc1ccccc1)NC(=O)[C@@H](N)CC(=O)O | -0.5 | · | i | 0.9 | · | -3.1 | -3.4
CC[C@@H](C(=O)[C@@H](C)[C@@H](O)[C@H](C)[C@@H]1O[C@@H]([C@@H](CC)C(=O)O)CC[C@@H]1C)[C@H]1O[C@]2(C=C[C@@H](O)[C@]3(CC[C@@](C)([C@H]4CC[C@](O)(CC)[C@H](C)O4)O3)O2)[C@H](C)C[C@@H]1C | · | · | i | · | · | 1.4 | -2.0
Remaining list, next part:
SMILES | RanGTP-Impb inh | E coli growth | FGF22 binding | UCH37 DUB inh | Vif A3G | HNF4A DNA FP | AF4-AF9 inh
Cc1ccc(CNC(=O)C2CC3Cn4c(nc5cc6ccccc6cc54)C3N2C)o1 (stereo not given) | -1.7 | 0.686 | i | -1.2 | 5.4% | 4.9 | -3.7
CCCN(CCC)C(=O)COc1cc(=O)n(CC)c2ccccc12 | ? | 0.777 | i | 2.5 | 25.9% | 0.3 | 0.4
Cc1ccc(C)c(NC(=O)C2COc3ccccc3O2)c1 (stereo not given) | 2.4 | 0.681 | i | 1.5 | ? | -1.2 | -3.1
CCCC(=O)Nc1cc(C(=O)O)ccc1Sc1ccccc1 | ? | 0.623 | i | -0.5 | 8.6% | -0.9 | -2.4
CCOC(=O)c1[nH]c2ccc(C)cc2c1NC(=O)CN1CCCCC1 | -2.1 | 0.687 | · | -8.7 | 2.5% | -0.3 | ·
COCCCN1C(=O)C(=O)/C(=C(/O)c2ccc3c(c2)CC(C)O3)C1c1cccnc1 (stereo not given) | 1.6 | 0.744 | · | 4.1 | -0.5%&0.8% | 2.6 | -2.2
Cc1ccc(S(=O)(=O)N2CCN(S(=O)(=O)c3ccccc3)C2)cc1 | -0.6 | 0.702 | · | 5.7 | -0.6% | 1.1 | ·
CCOc1ccc(OCC)c(NC(=O)CSc2nnc(Cn3cnc4ccccc43)n2C)c1 | · | 0.71 | · | 1.6 | ? | 2.2 | ·
COc1ccc(-n2c(C)c(C(C)=O)c3cc(OCC(N)=O)ccc32)cc1 | 5.7 | 0.648 | i | 2.5 | -4.7% | -0.2 | -0.7
Cc1ccc(C(=O)N(C)CC(=O)Nc2ccc(Cl)c(C(F)(F)F)c2)cc1S(=O)(=O)N1CCCCC1 | · | 0.688 | i | -0.4 | -4.7% | 2.2 | 4.2
CC(C1CC1)N(Cc1ccccc1)C(=O)NC(=O)c1ccc(F)cc1 (stereo not given) | -1.4 | 0.652 | i | 0.7 | 1.3% | 5.3 | -2.7
CCc1nc(SCC(=O)Nc2ccnc3ccccc23)n[nH]1 | 4.8 | 0.716 | · | 1.1 | 17.6% | 3.3 | ·
CC(=O)N(Cc1cccc(Br)c1)c1ccc(N2CCOCC2)c(Cl)c1 | -3.6 | 0.684 | i | 3.5 | -6.1% | -2.9 | 1.5
C=CCOc1ccc(C2C(C(=O)c3cccs3)=C(O)C(=O)N2c2nnc(C)s2)cc1 (stereo not given) | -12.4 | 0.684 | · | 10.5 | · | -75.2 | ·
CC(=O)c1ccc(OCc2cc(C(=O)N3CCCCC3c3cccnc3)no2)cc1 (stereo not given) | 3.1 | · | i | · | · | -0.4 | 5.3
COc1ccc(C(=O)CCC(=O)N2CCN(c3ccc(C)cc3)C(C)C2)cc1 (stereo not given) | 1.3 | 0.693 | i | 4.2 | · | 3.0 | 0.8
CCOc1ccccc1CNCc1ccc(F)cc1 | -1.9 | 0.697 | i | 5.9 | · | -1.0 | -0.1
O=C(Nc1cc(S(=O)(=O)N2CCOCC2)ccc1O)c1ccc(NS(=O)(=O)c2ccc(Cl)s2)cc1 | 2.7 | 0.708 | i | 3.6 | 3.8% | 2.0 | -6.4
CCn1cc2nc(SCC(=O)Nc3ccc(OC)c(OC)c3)n(Cc3ccc(OC)cc3)c(=O)c2n1 | 0.6 | 0.672 | i | 4.1 | · | 4.8 | 9.1
COc1ccc(CC(=O)OCC(=O)Nc2ccc(Cl)c(S(=O)(=O)N(C)C)c2)cc1 | 4.6 | 0.64 | · | 2.6 | -12.4% | -2.4 | 0.2
NC(=O)CSc1nnc(COc2ccc3ccccc3c2)o1 | -2.0 | 0.71 | i | 2.5 | · | -1.5 | -2.1
CC1CN(C(=O)c2ccc(NS(=O)(=O)c3cccc(Cl)c3)cc2)CC(C)O1 (stereo not given) | 3.0 | 0.698 | · | 0.5 | · | 1.0 | 0.7
CCOC(=O)c1cnn(-c2cc(C)nc3c(-c4ccccc4)cnn23)c1N | -0.6 | 0.721 | · | 0.6 | 13.6% | -1.4 | ·
CCCCN(CCCC)S(=O)(=O)c1ccc(C(=O)Nc2nnc(COC)o2)cc1 | 2.3 | 0.698 | · | 0.2 | 6.4% | -5.2 | ·
CCOc1ccc2nc(NCCNC(=O)CC)c(C#N)cc2c1 | 1.6 | 0.697 | · | -220.0 | -1.2% | -2.7 | ·
Remaining list, next part.
SMILES | RanGTP-Impb inh | E coli growth | FGF22 binding | UCH37 DUB inh | Vif A3G | HNF4A DNA FP | AF4-AF9 inh
COc1ccccc1-c1nnc(C2CCN(S(=O)(=O)c3ccc([N+](=O)[O-])cc3)CC2)o1 | 2.8 | 0.685 | i | 1.1 | · | 0.6 | 2.1
COc1ccc(NC(=O)CC2C(=O)N(c3ccc(OC)cc3)C(=O)N2C(C)C)cc1 (stereo not given) | 3.5 | 0.692 | · | 5.2 | 17.7% | 1.5 | ·
Cc1ccc(O)c(-c2cc(C(F)(F)C(F)F)[nH]n2)c1 | 0.5 | 0.667 | · | -0.7 | 5.9% | -0.1 | ·
Cc1noc(C(=O)N2CCN(c3ccccc3)CC2)c1Cl | 0.7 | 0.647 | i | -3.9 | · | -3.7 | -4.6
CCn1ccnc1CN(C)Cc1c(C(=O)N2C[C@@H](C)O[C@@H](C)C2)nc2ccc(Cl)cn12 | 5.8 | 0.724 | i | 1.4 | · | -0.1 | -1.2
CC1CN(c2ccccc2)C(=O)CS1 (stereo not given) | -0.6 | 0.729 | · | 1.2 | -4.6% | -0.7 | ·
COc1ccc2oc(C)c(C(=O)c3ccc([N+](=O)[O-])cc3)c2c1 | -0.6 | 0.62 | i | -0.7 | 8.3% | 1.9 | 10.1
O=Nc1nc2ncccn2c1-c1ccccc1 | · | · | i | · | · | 7.6 | 0.5
O=C(CNC(=O)c1ccccc1F)OCC(=O)c1c[nH]c2ccccc12 | · | 0.684 | i | 1.7 | · | -0.6 | 0.1
CCCc1nnc(NC(=O)Cn2c(=O)oc3ccccc32)s1 | -4.4 | 0.706 | · | 5.2 | -7.3% | 1.2 | ·
COc1ccc2nc(N3CCN(C(=O)C4COc5ccccc5O4)CC3)sc2c1 (stereo not given) | -1.1 | 0.672 | i | 1.7 | 1.8% | -0.3 | -5.8
C[C@H](CO)N1C[C@H](C)[C@@H](CN(C)Cc2ccc(C(=O)O)cc2)Oc2ccc(NS(=O)(=O)c3cn(C)cn3)cc2C1=O | · | · | i | 1.5 | · | -2.6 | -1.2&-25.8
COc1ccc(C(=O)NC2CCN(C(=O)Nc3ccccc3Cl)CC2)cc1 | 6.4 | 0.673 | i | -1.5 | · | -0.8 | -1.1
O=C(Nc1cccc(OC(F)(F)F)c1)c1ccc(-c2cccnc2)c2ccoc12 | · | · | i | · | · | -0.1 | -2.7
COc1cccc(/C=N/NC(=O)c2ccc(=O)n(C)c2)c1O | -0.1 | · | · | · | 30.2% | 3.3 | ·
C1CCN(c2nc3nonc3nc2NCC2CCOCC2)CC1 | -1.4 | 0.664 | i | 10.3 | · | 1.1 | 5.2
CC1CCN(C(=O)CSc2nnc(CNC(=O)c3ccco3)o2)CC1 | 1.8 | 0.723 | · | 1.5 | 0.0% | 2.3 | ·

3 entries from above in another layout.
mol	RanGTP-Impb inh	E coli growth	FGF22 binding	UCH37 DUB inh	Vif A3G	HNF4A DNA FP	AF4-AF9 inh
O=C(Nc1cccc(OC(F)(F)F)c1)c1ccc(-c2cccnc2)c2ccoc12	·	·	i	·	·	-0.1	-2.7
COc1cccc(/C=N/NC(=O)c2ccc(=O)n(C)c2)c1O	-0.1	·	·	·	30.2%	3.3	·
C1CCN(c2nc3nonc3nc2NCC2CCOCC2)CC1	-1.4	0.664	i	10.3	·	1.1	5.2
